Screening results: PubChem, several laboratories
HIV Env fusion = inhibitors of HIV-1 Env-driven cell-cell fusion, primary screen, HeLa-JRFL effector, CEM21 target cells, luciferase; inhibition, % at 12.3 µM; 360,000 tested, 1.1% active;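 active = mean replicate inhibition score of at least 50 and every replicate individually at or above 50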;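 also: 0% = plate neutral controls and 100% = maraviroc near 300 nM; one replicate is shown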
PABP polyA inh = PABP poly(A) RNA binding inhibitors, primary screen, biochemical, fluorescence polarization, uHTS. Polyadenylate-binding protein 1 (Homo sapiens), P11940. inhibition, % at 35 µM. 290,000 tested, 1% active. AID 2014, 2009;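 active = 50% or more with normal probe brightness, or confirmed in later tests; about a fifth of its hits are not listed in these tables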;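 also: calls also rest on retests at 20 µM and on dose response follow-up; controls were probe without protein and protein plus probe with vehicle; some compounds called inactive have numbers as strong as hits; many hits fall short of the cut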
Rce1 inhib = yeast Rce1p protease inhibitors, primary screen, biochemical, fluorescence, cell-free homogeneous; CAAX prenyl protease 2 (Saccharomyces cerevisiae (strain ATCC 204508 / S288c)), Q03530; yeast membranes, quenched prenylated peptide cleavage fluorescence; calls only; 290,000 tested, 0.27% active;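 active = fall in fluorescence gain of 50% or more versus controls, with final raw signal at or below 3038400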;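 also: plate controls were neutral control wells for no effect and wells lacking membranes for full effect; tested at 10 µM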
Target sequence (Q03530 whole entry, looked up): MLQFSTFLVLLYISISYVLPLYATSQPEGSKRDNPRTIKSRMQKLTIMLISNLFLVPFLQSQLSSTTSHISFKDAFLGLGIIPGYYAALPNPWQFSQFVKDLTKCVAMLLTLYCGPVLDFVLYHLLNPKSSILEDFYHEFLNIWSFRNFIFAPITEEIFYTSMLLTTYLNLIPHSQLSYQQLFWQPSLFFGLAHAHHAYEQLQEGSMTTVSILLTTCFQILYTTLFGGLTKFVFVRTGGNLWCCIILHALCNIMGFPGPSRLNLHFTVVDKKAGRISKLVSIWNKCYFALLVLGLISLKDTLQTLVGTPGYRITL
Yeast UUG start = modulators of yeast start codon fidelity, primary screen, whole organism, S. cerevisiae, single point, plate reader. activity score, % at 18.7 µM. S. cerevisiae UUG-firefly luciferase reporter, luminescence/redox ratio. 350,000 tested, 0.13% active;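 active = replicate mean at a twofold rise or more, about +100% in these data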;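 also: firefly luciferase made from a UUG start codon reports start codon fidelity; reporter light over untreated wells divided by growth signal over untreated wells; some hits fall short of that in this replicate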
MT1-MMP act inh = blockers of MT1-MMP proenzyme processing, primary screen, HT1080 RFP-PRO-GFP cells, GFP/RFP fluorescence; Matrix metalloproteinase-14 (Homo sapiens), P50281; GFP/RFP ratio fluorescence, overnight; percent of plate control window, DMSO zero; GFP/RFP ratio change, % at 20 µM; 360,000 tested, 0.061% active; AID 651647, 2012;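 active = GFP/RFP ratio change of at least 30% with cell ATP level not reduced by more than half and red fluorescence within 50% of control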; also: strong numbers were not always called active
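Assay system: RFP-PRO-GFP reporter HT1080 cells; read-out basis: GFP/RFP fluorescence ratio; benchmarks: DMSO wells and RFP-L50D-GFP cells; doses: 20 µM single dose, 1% DMSO; schedule: overnight cell settling, then overnight compound exposure, 37 °C, 5% CO2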
CSC inhib = cancer stem cell viability inhibitors, primary screen, luminescence | cancer stem cell-like cells viability | inhibition, % at 7.5 µM | 300,000 tested, 1.1% active | AID 2717, 2010;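 active = mean at 75% or more and at least half the replicates too; tested in HMLE shEcad cells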;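 also: 0% = median of negative and 100% = median of positive control wells; the first replicate is given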
eIF4H inh = human eIF4H binding inhibitors, primary screen, translation initiation inhibitor project, biochemical, uHTS, fluorescence polarization; inhibition, % at 35 µM; Eukaryotic translation initiation factor 4H (Homo sapiens), Q15056; eIF4H fluorescence polarization binding assay; AID 2012, 2009; 290,000 tested, 0.94% active;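 active = 50% or more with normal probe brightness, or confirmed in later tests; about a fifth of its hits are not listed in these tables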;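 also: calls also rest on retests at 20 µM and on dose response follow-up; 0% = protein and probe with vehicle and 100% = probe without protein; strong numbers were not always called active; many hits fall short of the cut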
eIF4H inh retest = also measured in eIF4H inh; calls as there; inhibition, %; compound at 20 µM; confirmation average;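 mean of two retest wells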
PABP polyA inh retest = second read-out of PABP polyA inh, no call of its own (marks repeat the call); inhibition, %; compound at 20 µM; confirmation repeats;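 mean of two retest wells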
MT1-MMP act inh RFP = also measured in MT1-MMP act inh; calls as there; RFP signal change, %; measured here: RFP expression control read;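 0 = vehicle wells; hits needed this value within 50% of zero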
* = called active by the depositor; i = inactive; . = no result given; + = active, no number; & = joins results of further samples. Rows were taken by chance; about 2.9% have a hit in one of these screens.

A first look (14 entries):
SMILES	HIV Env fusion	PABP polyA inh	Rce1 inhib	Yeast UUG start	MT1-MMP act inh	MT1-MMP act inh RFP	CSC inhib	eIF4H inh	others
CCCN(CC(=O)Nc1ccc(Cl)cc1Cl)C(=O)/C=C/c1ccco1	-40	-1	i	.	-5	-9	53	-1
Cc1nc2ccc([N+](=O)[O-])cc2c(=O)n1Cc1ccccc1Br	-3	0	i	-20	5	-1	-3	-17
COc1ccc(CN(C)C[C@H]2OCCCC[C@H](C)Oc3ccc(NC(=O)CCC(F)(F)F)cc3C(=O)N([C@@H](C)CO)C[C@@H]2C)cc1	-92	.	.	-5&-2	-3	-4	.	.
COc1cc(OC)c(C2SCCN2S(=O)(=O)c2ccc(F)cc2)cc1OC (configuration not stated)	36	7	i	-10	7	-5	-7	-3
Cc1ccc(NC(=O)c2ccc3[nH]c(=O)c(=O)[nH]c3c2)nc1	5	10	i	-20	2	0	-7	13
Cc1nn(CC(=O)N2CC(=O)Nc3ccccc32)c(C)c1[N+](=O)[O-]	1	2	.	-12	-2	5	-1	4
Cc1ccc(N(CC(=O)NC2CCCCC2)C(=O)CNC(=O)c2ccco2)cc1C	0	-3	i	-11	1	3	-9	-1
CN(c1ccc(O)cc1)c1nc(-c2cccs2)cs1	-141	0	i	.	1	-8	-5	-7
COc1ccc(NS(=O)(=O)c2cc(NC(=O)CCc3ccc(OC)c(OC)c3)ccc2N2CCOCC2)cc1	25	.	.	2	1	0	.	.
O=C(c1cc([N+](=O)[O-])ccc1N1CCCCC1)N1CCc2ccccc21	7	-5	.	.	-1	-17	56	-10
O=C(Nc1ccc(Cl)c(C(F)(F)F)c1)N1CCCC(O)C1 (configuration not stated)	.	20	i	-18	4	1	-11	-4
COc1ccc(C(=O)NC2CC2)cc1OC1CCN(C(C)CSC)CC1 (configuration not stated)	-2	4	i	-19	-6	-2	-2	10
Cc1ccc(C2=Nc3ccccc3N=C(C(Cl)Cl)C2)cc1	-24	-2	i	-41	-10	2	22	29
Cc1[nH]c2ccccc2c1C=NNC(=O)c1cc(-c2cccnc2)nc2ccccc12	-4	.	.	-16	-6	-7	1	.

The list itself, from the first entry:
SMILES	HIV Env fusion	PABP polyA inh	Rce1 inhib	Yeast UUG start	MT1-MMP act inh	MT1-MMP act inh RFP	CSC inhib	eIF4H inh	others
CCCN(CC(=O)Nc1ccc(Cl)cc1Cl)C(=O)/C=C/c1ccco1	-40	-1	i	.	-5	-9	53	-1
Cc1nc2ccc([N+](=O)[O-])cc2c(=O)n1Cc1ccccc1Br	-3	0	i	-20	5	-1	-3	-17
COc1ccc(CN(C)C[C@H]2OCCCC[C@H](C)Oc3ccc(NC(=O)CCC(F)(F)F)cc3C(=O)N([C@@H](C)CO)C[C@@H]2C)cc1	-92	.	.	-5&-2	-3	-4	.	.
COc1cc(OC)c(C2SCCN2S(=O)(=O)c2ccc(F)cc2)cc1OC (configuration not stated)	36	7	i	-10	7	-5	-7	-3
Cc1ccc(NC(=O)c2ccc3[nH]c(=O)c(=O)[nH]c3c2)nc1	5	10	i	-20	2	0	-7	13
Cc1nn(CC(=O)N2CC(=O)Nc3ccccc32)c(C)c1[N+](=O)[O-]	1	2	.	-12	-2	5	-1	4
Cc1ccc(N(CC(=O)NC2CCCCC2)C(=O)CNC(=O)c2ccco2)cc1C	0	-3	i	-11	1	3	-9	-1
CN(c1ccc(O)cc1)c1nc(-c2cccs2)cs1	-141	0	i	.	1	-8	-5	-7
COc1ccc(NS(=O)(=O)c2cc(NC(=O)CCc3ccc(OC)c(OC)c3)ccc2N2CCOCC2)cc1	25	.	.	2	1	0	.	.
O=C(c1cc([N+](=O)[O-])ccc1N1CCCCC1)N1CCc2ccccc21	7	-5	.	.	-1	-17	56	-10
O=C(Nc1ccc(Cl)c(C(F)(F)F)c1)N1CCCC(O)C1 (configuration not stated)	.	20	i	-18	4	1	-11	-4
COc1ccc(C(=O)NC2CC2)cc1OC1CCN(C(C)CSC)CC1 (configuration not stated)	-2	4	i	-19	-6	-2	-2	10
Cc1ccc(C2=Nc3ccccc3N=C(C(Cl)Cl)C2)cc1	-24	-2	i	-41	-10	2	22	29
Cc1[nH]c2ccccc2c1C=NNC(=O)c1cc(-c2cccnc2)nc2ccccc12	-4	.	.	-16	-6	-7	1	.
CC(=O)c1cc(C#N)c(SCc2ccc([N+](=O)[O-])cc2)nc1C	0	3	i	.	-3	0	11	-12
Cc1ccc([N+](=O)[O-])cc1S(=O)(=O)Nc1cccc(-c2ccc(N3CCOCC3)nn2)c1	-8	.	i	22	2	-3	1	.
CCn1c(SCC(=O)Nc2sc3c(c2C#N)CCCC3)nnc1-c1ccco1	.	6	i	-15	0	-2	0	3
COc1ccc2c(c1)[C@H]1[C@H](CO2)[C@H](c2ccccc2)[C@]2(C)C(=O)N[C@H](C)C(=O)N12	9	.	.	-2	-1	3	-11	.
O=C1CC(c2ccco2)CC(O)=C1C=Nc1cc(Cl)cc(Cl)c1 (configuration not stated)	.	30	i	.	3	14	13	54	eIF4H inh retest=6;PABP polyA inh retest=0
CCc1cc2cccc(C)c2nc1SCC(=O)Nc1cc(C)on1	13	-9	i	.	-3	-3	30	4
CC(C)C1CC(c2ccccc2)(C(CN)CO)CCO1 (configuration not stated)	-7	13	i	.	-1	1	0	0
COc1ccc(-c2nnc(SCc3c(C)noc3C)n2N)cc1OC	-21	-13	i	0	-4	-3	-14	-4
COC(=O)[C@@]12CCCN1[C@H](c1ccc(-c3ccc(OC)cc3)c(OC)c1)[C@H]1C(=O)N(C)C(=O)[C@H]12	-14	.	i	40	1	1	-3	.
Cc1nn(-c2cc(N3CCCCCC3)ccc2[N+](=O)[O-])c(=O)c2ccccc12	-82	-1	i	-13	6	-6	-8	-16
O=C(NCc1ccc2c(c1)OCO2)c1ccco1	13	-7	i	.	-2	2	-6	-10
CCc1ccc(-n2c(=O)c3c(C)c(C(=O)N(C)C)sc3n(CC(=O)NCc3ccco3)c2=O)cc1	-2	-5	i	-16	0	1	-14	-12
COc1ccc(-n2cc(-c3ccccc3)[n+]3c2CCCCC3)cc1	14	7	i	.	-9	-28	-3	7
O=C(O)c1ccc(N=Cc2nc(-c3ccco3)oc2O)cc1	8	-3	i	.	-1	-6	3	-5
COc1ccc(NC(=O)CN2CCN(C(=O)N3CCOCC3)CC2)cc1	-1	-3	i	-3	-1	1	7	1
COc1cc(/C=N/NS(=O)(=O)c2ccc(C(C)(C)C)cc2)cc([N+](=O)[O-])c1O	16	-1	.	.	13	4	4	-11
CCn1c(C(C)NC(=O)c2ccc(Cl)cc2)n[nH]c1=S (configuration not stated)	22	18	i	-18	2	-2	-19	-10
CCOC(=O)c1c(NC2=NS(=O)(=O)c3ccccc32)sc2c1CCC(C)C2 (configuration not stated)	.	2	i	.	4	1	.	-10
CCOCCCNC(=S)N1CCC(C(=O)c2ccc(C)cc2)CC1	14	10	i	15	.	.	-1	-2
Cc1cc(C)cc(Cn2c3ccc(NC(=O)NCCc4cccs4)cc3c(=O)n2C)c1	6	.	.	-13	-3	-2	.	.
CCOc1cccc(/C=N/N2C(C)CCCC2C)c1O (configuration not stated)	11	-7	i	-23	-2	1	7	-6
O=C(C1=C[C@@H](C2CCCCC2)C[C@@H](OCc2ccc(CO)cc2)O1)N1CCN(Cc2ccc3c(c2)OCO3)CC1	16	-5	i	7	3	-4	41	-7
CCOc1ccc(N(C)S(=O)(=O)c2ccc3[nH]cc(C(=O)NCCOC)c(=O)c3c2)cc1	10	-14	i	-5	5	0	3	-7
CC(=O)Oc1ccc(CN2C(=O)C(CCc3ccccc3)ON=C2c2cnccn2)cc1 (configuration not stated)	-15	.	.	-14	6	0	.	.
Cc1ccc(C(=O)N2CCC3(CC2)Oc2ccc(Cl)cc2C(=O)C32CC(c3ccc(Cl)cc3)=NO2)s1 (configuration not stated)	-25	-6	i	-18	10	5	-5	3
CC(C)CSC1=NSC2=NC(=O)/C(=C\c3cccs3)C(=N)N12	17	8	i	.	-16	-20	40	51*	eIF4H inh retest=61*;PABP polyA inh retest=29
O=C(Oc1c(Br)cc([N+](=O)[O-])cc1Br)c1cccnc1	6	10	.	.	7	4	0	-6
Cc1ccc(O)c(NC(=O)C2CCCCC2)c1	-12	11	i	.	13	-1	0	-4
CCCCn1nnnc1SCC(=O)c1cc(Cl)ccc1OC	-10	-6	i	-24	1	-4	-15	-13
O=C(Nc1cccnc1)c1cccnc1Cl	12	0	i	-9	3	4	2	-8
CSc1ccccc1NC(=O)COc1nsnc1N1CCOCC1	5	8	i	-6	1	-1	-2	6
NC(=S)N=Nc1c(O)n(Cc2ccc(F)cc2)c2ccccc12	2	-6	+	.	11	0	15	13
Cc1ccc2nc3n(c(=O)c2c1)CCCCC3	-5	-5	i	9	5	4	12	-5
O=C(N/N=C/c1ccc(O)cc1)Nc1cccc2nsnc12	6	-4	i	.	-21	-22	47	-2
Cc1cc2oc(=O)cc(-c3ccccc3)c2c(C)c1-c1ccc(C(F)(F)F)cc1	7	.	.	-19	0	2	.	.
O=C(CCc1ccccc1)c1nnc(-c2ccccc2)o1	-3	2	.	.	1	1	-1	9
Cc1ccc(-n2nc3ccc(NC(=O)/C=C/c4ccco4)cc3n2)cc1	.	-9	i	-16	-2	-2	11	15
Cc1cc(C)n2nnnc2n1	0	-4	i	-7	0	4	-8	-5
O=C(O)C(Cc1c[nH]c2ccccc12)N1C(=O)c2ccccc2C1=O (configuration not stated)	7	3&-2	i	.	-4	4	-4	-4&-8
CCOc1ccc(CCNC(=O)CS(=O)(=O)Cc2nc(-c3ccc(OC)cc3)oc2C)cc1	7	7	i	-21	2	-2	7	2
CCC(c1nnnn1CCc1ccccc1)N1CCN(c2ccc(OC)cc2)CC1 (configuration not stated)	.	-5	i	-11	-7	-3	-20	2
COc1ccc(C(C(=O)NC(C)(C)C)N(C(=O)CCC(=O)Nc2cc(C)on2)c2ccccc2F)cc1 (configuration not stated)	19	-7	i	4	3	3	.	2
Cc1ccccc1NC(C)C(=O)N/N=C/c1ccccc1OCc1cccc(Br)c1 (configuration not stated)	-31	5	i	-18	-6	-27	28	-2
CCOC(=O)C1(C)CCCN(C(=O)c2c(-c3ccccc3)noc2C)C1 (configuration not stated)	-1	.	.	0	1	5	.	.
CCOc1ncccc1C(=O)Nc1cc(S(=O)(=O)N(CC)CC)ccc1N1CCOCC1	-16	.	.	-11	.	.	10	.
CCS(=O)(=O)n1nc(-c2ccccc2)nc1NCc1ccco1	-5	2	i	-13	1	1	1	5
CCOc1ccc(NC(=O)C/C(C)=N/NC(=O)COc2ccc(Br)cc2C)cc1	-29	-1	i	-14	2	8	.	2
CCS(=O)(=O)c1ccc(O)c(NC(=O)Nc2cccc3ccccc23)c1	-35	8	i	-5	-2	-1	-8	6
